Assay outcomes: PubChem, several laboratories
BJeLR lethal: MLPCN primary cell-based screen for lethality selective to Ras in HRASV12 cells; BJeLR (HRASV12) viability, CellTiter-Glo ATP luminescence, 48 h; reference of the scale not given here; 300,000 tested, 0.17% active; AID 1554, 2009; inhibition, % (test concentration not listed);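 active means replicate mean above 50%; inconclusive means above 50% but judged a plate artefact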;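 further: 50 nL library stock added to about 25 µL; numbers are from one replicate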
Bead autofluor: compound fluorescence in toxin protease inhibitor counterscreen. compound autofluorescence counterscreen, microsphere flow cytometry; hits give high values. fluorescence intensity (test concentration not listed). 360,000 tested, 3.1% active. AID 624483;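 active means at least 3 SD above the mean of all compounds, about 16000 in these data; inconclusive means too few beads counted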;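 further: 100 nL of 1 mM stock went into each well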
Mtb hypoxia rep: PubChem AID 1159583. fluorescence inhibition, % (test concentration not listed). 300,000 tested, 0.1% active. M. tuberculosis hypoxia-regulated fluorescent reporter, fluorescence;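 active means 35 to 45% if threefold the growth effect, above 45% if 1.5-fold the growth effect; inactive means the rest, general growth blockers included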;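 further: wells of about 50 µL received 100 nL stock; 0% = vehicle wells and 100% = reference inhibitor wells; whole bacteria with a GFP reporter of the hypoxia response; strong numbers were not always called active; many hits fall short of the cut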
Sa ugtP lethal: growth inhibition of ugtP-null S. aureus, primary screen, RN4220 ugtP deletion, OD600. AID 1259309, 2017. growth inhibition, % (test concentration not listed). 16 h; some inactives read as strong as hits. 330,000 tested, 0.54% active;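 active means z-score under -3 and OD600 up to 0.15 on both plates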;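 further: plate controls were untreated wells for no effect and antibiotic for full effect; wells of about 80 µL received 100 nL stock; the first replicate is given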
RN4220 kill: growth inhibition of S. aureus RN4220, primary screen, OD600 | inhibition, % (no concentration beside the values) | 330,000 tested, 0.33% active | AID 1259311, 2017 | 16 h;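 active means z-score of -3 or lower and OD600 up to 0.18 on both plates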;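 further: plate controls were untreated cells for no effect and reference antibiotic for full effect; stock transfer was 100 nL into about 80 µL; one replicate is shown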
PrP UTR inh: inhibition of PrP 5' UTR reporter expression; 340,000 tested, 0.35% active; cell-based PrP 5' UTR mRNA reporter, plate reader; inhibition, % (test concentration not listed); AID 488862, 2010;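 active means every replicate at 50% or more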;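 further: 0 = median of the neutral control wells; tested in H4 reporter cells; numbers are from one replicate; inactives centre near -14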
Mtb hypoxia rep growth: further read-out of Mtb hypoxia rep, marked with its call; growth inhibition, %; measured here: M. tuberculosis growth (absorbance);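 0% = vehicle and 100% = reference antibiotic; read after six days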
Numbers without * were called inactive; ? = inconclusive; nt = not tested or not shown.

SMILES	BJeLR lethal	Bead autofluor	Mtb hypoxia rep	Mtb hypoxia rep growth	Sa ugtP lethal	RN4220 kill	PrP UTR inh
Nc1nonc1-n1nnc(C(=O)NN=Cc2ccc3c(c2)OCO3)c1-c1ccccc1	nt	nt	7	6	8	-0.1	nt
COCC(=O)NNC(=O)c1ccc(OC)cc1	-7	4569	11	2	5	5.3	-34
O=C(NC1CC2CCC(C1)N2C(=O)NCc1ccccc1)NC12CC3CC(CC(C3)C1)C2 (stereo not drawn)	1	4195	-5	0	6	-0.1	-26
CCCOC(=O)C(C)n1cnc2sc(C)c(C)c2c1=O (stereo not drawn)	16	3250	nt	nt	nt	nt	-44
O=c1[nH]c(=O)c2ncc(-c3ccc(Cl)cc3)nc2[nH]1	-5	nt	-3	0	3	4.5	nt
COc1cccc(COc2ccccc2C2Nc3ccc(Br)cc3C(=O)N2NC(=O)c2ccncc2)c1 (stereo not drawn)	2	2415	nt	nt	-1	1.0	-24
CC1CCCC1C(=NO)c1ccccc1 (stereo not drawn)	nt	nt	21	3	8	6.9	nt
S=c1nc2ccccc2c2nc(-c3ccccc3Cl)[nH]n12	-6	4089	nt	nt	nt	nt	-5
COc1cccc(CN(C(=O)c2ccccc2Cl)C2CCS(=O)(=O)C2)c1 (stereo not drawn)	6	5071	4	-1	4	-0.4	-15
CC(=O)NC1=NN(C(C)=O)C(c2ccc(F)cc2)S1 (stereo not drawn)	6	4603	-2	-1	2	2.0	-10
c1ccc2c(c1)CCCN2c1nc2ccccc2n2cnnc12	-1	4337	-5	-4	8	3.4	-19
O=C(CN1CCOCC1)NCCC12CC3CC(CC(C3)C1)C2	1	3514	nt	nt	-2	2.2	-4
COc1ccc(N2CCN(C(=O)CN(Cc3ccccc3)S(C)(=O)=O)CC2)cc1	2	11205	1	8	-3	2.3	-19
Cc1cc(NC(=O)CCC(=O)N(c2ccccc2)C(C(=O)NC2CCCC2)c2ccccc2)no1 (stereo not drawn)	-15	4365	nt	nt	2	-1.3	-17
CCC1=C(OC(=O)N(CC)CC)N2C(=O)OC(=NCC(=O)OC)[C@]2(C)[C@H]2C1=CC[C@H]1C(=O)NC(=O)[C@H]12	-10	3536	nt	nt	nt	nt	-17
Cc1ccc(S(=O)(=O)NC(C)C(=O)NCc2ccc(Cl)cc2)cc1 (stereo not drawn)	5	nt	3	4	5	-1.5	nt
COc1cccc(NC(=O)CCCn2c(=S)[nH]c3ccccc3c2=O)c1	1	9017	14	9	1	3.0	-25
O=[N+]([O-])c1ccccc1CNC1CCCc2ccccc21 (stereo not drawn)	5	3290	-6	-4	8	16	-4
Cc1ccc(Oc2ncccc2NC(=O)CCCC(=O)O)c2c1CCC2	3	5442	-5	-5	-4	-3.0	nt
CC1CN(C(C)CO)C(=O)c2cccc(NC(=O)C3CCCCC3)c2OC1CN(C)S(=O)(=O)c1cccs1 (stereo not drawn)	nt	nt	15	7	10	9.8	nt
CN(C)CCC(=O)N1c2ccccc2Sc2ccc(Cl)cc21	7	2658	5	8	4	0.3	-34
NC(N)=NN=Cc1ccc(OCc2ccc(Cl)cc2Cl)cc1	nt	nt	21	13	101*	100*	nt
COc1cc(C=C2C(=O)OC(c3ccccc3)OC2=O)cc(Br)c1O (stereo not drawn)	-1	2661	0	-1	0	2.0	-10
Cc1cccc(C=Nc2ccc3c(c2)oc2ccccc23)c1O	-2	9701	4	0	3	3.7	-51
COc1cccc(-c2c(C(=O)N/N=C/c3ccc(C)s3)nnn2-c2nonc2N)c1	4	4651	nt	nt	nt	nt	-17

Reprinted at random: three entries already listed
SMILES	BJeLR lethal	Bead autofluor	Mtb hypoxia rep	Mtb hypoxia rep growth	Sa ugtP lethal	RN4220 kill	PrP UTR inh
CC1CN(C(C)CO)C(=O)c2cccc(NC(=O)C3CCCCC3)c2OC1CN(C)S(=O)(=O)c1cccs1 (stereo not drawn)	nt	nt	15	7	10	9.8	nt
O=c1[nH]c(=O)c2ncc(-c3ccc(Cl)cc3)nc2[nH]1	-5	nt	-3	0	3	4.5	nt
Cc1cccc(C=Nc2ccc3c(c2)oc2ccccc23)c1O	-2	9701	4	0	3	3.7	-51

Next part.
SMILES	BJeLR lethal	Bead autofluor	Mtb hypoxia rep	Mtb hypoxia rep growth	Sa ugtP lethal	RN4220 kill	PrP UTR inh
C=CCn1c(SCC(=O)N(CC)C2CCS(=O)(=O)C2)nc2cc(C(=O)O)ccc2c1=O (stereo not drawn)	nt	2911	-6	-12	1	3.1	1
O=S(=O)(Nc1ccc(Cl)cn1)c1cccc(S(=O)(=O)c2ccccc2)c1	4	3582	9	2	8	14	7
CCOc1ccccc1NC(=S)N(CCC(C)C)C1CCN(C(C)=O)CC1	-1	?	6	1	0	0.9	2
CC(C)COC(=O)C(C#N)c1nc2ccccc2nc1N1CCN(Cc2ccccc2)CC1 (stereo not drawn)	1	4249	nt	nt	7	-13	-23
O=S1(=O)N=C(N(CCO)N=Cc2ccccc2)c2ccccc21	nt	nt	16	3	-5	8.4	nt
CCN(CC)C(=O)Nc1ccc(C(=O)OC)cc1	10	4161	nt	nt	8	-4.6	-22
Cc1cccc(Nc2nc(-c3sc(C)nc3C)cs2)c1	-3	3382	5	-17	90*	-7.0	-45
O=C(NC1CCCCC1)C(c1ccco1)N(C(=O)c1csnn1)C1CCCC1 (stereo not drawn)	-1	22986*	6	5	10	5.1	-13
COc1ccc(-n2c(SCC(N)=O)nnc2-c2ccco2)cc1	0	4762	9	-1	6	3.4	-7
CC(=O)c1cnc2c(C(=O)O)cnn2c1C	1	6544	1	7	2	3.0	0
C=CCOc1cccc(C2/C(=C(\O)c3ccc4c(c3)OCCO4)C(=O)C(=O)N2Cc2cccnc2)c1 (stereo not drawn)	-13	6218	0	-6	4	3.1	-33
Cc1ccc(S(=O)(=O)N(C)C)cc1NC(=O)CSc1nnnn1-c1ccc(O)cc1	4	3518	21	7	8	2.6	-19
CCOC(=O)c1ccc(NC(=O)NCCc2cnc[nH]2)cc1	-11	3605	1	13	-5	2.9	-10
O=C(CCc1nnc(C2(c3ccc(Cl)cc3)CCC2)o1)NCCCn1cccn1	6	4545	12	3	3	-1.0	-16
Cc1noc(C)c1NC(=O)N(C)C[C@@H]1Oc2c(NC(=O)NC(C)C)cccc2C(=O)N([C@@H](C)CO)C[C@@H]1C	nt	3621	-8	3	2	3.7	-11
c1cncc(-c2cn(C[C@H]3CC[C@H](Cn4cc(-c5cccnc5)nn4)O3)nn2)c1	nt	3307	3	2	6	0.0	27
Cc1ccc(NC(=O)c2nsc(Cl)c2Cl)cc1	-4	5857	0	0	3	4.2	-44
O=C(CN1C(=O)C2C3C=CC(C3)C2C1=O)OCC(=O)c1ccc(Cl)cc1 (stereo not drawn)	-6	5340	5	-2	6	2.0	-31
O=c1cc(N2CCN(c3ccccc3Cl)CC2)[nH]c(=O)n1Cc1ccc(F)cc1	18	3622	6	-3	4	-0.4	-24
Cc1cc(Br)ccc1NC(=O)CN(C)C(=O)CSC(=S)N1CCCC1	nt	3969	-5	-1	-1	0.7	-18
Cn1c(/N=C/c2c[nH]c3ccccc23)nc2ccccc21	-4	2885	nt	nt	nt	nt	-30
NC(=S)N/N=C/c1cc([N+](=O)[O-])ccc1Cl	6	4076	nt	nt	nt	nt	-26
COc1ccc(C2C(C#N)=C(N)Oc3cc4c(cc32)OCO4)cc1 (stereo not drawn)	12	9251	2	-6	-12	-3.8	1
N#C/C=C/C(=C\Nc1ccc(Cl)cc1)S(=O)(=O)c1ccccc1	3	3758	1	8	7	1.1	-2
Cc1cc(NC(=O)Cn2nc(C(=O)O)c3ccccc3c2=O)ccc1Br	-3	3606	-4	2	1	1.9	-14

Other compounds:
SMILES	BJeLR lethal	Bead autofluor	Mtb hypoxia rep	Mtb hypoxia rep growth	Sa ugtP lethal	RN4220 kill	PrP UTR inh
CSc1ccccc1C(=O)N1CCN(c2cccc(Cl)c2)CC1	15	2973	9	8	3	17	-30
Oc1ccc2ccccc2c1N=Nc1ccccc1F	10	3396	8	12	-5	5.7	-23
Cc1nccn1CCCNC(=O)C1CCC(=O)N(Cc2ccccc2F)C1 (stereo not drawn)	3	6161	-5	-5	0	-1.7	-1
CNC(=O)N1CCN(C(=O)NC)CC1	-2	7315	4	6	2	2.2	-34
COc1ccccc1OCC(=O)Nc1c2c(nn1-c1ccc(F)cc1)CS(=O)(=O)C2	-9	5183	11	15	-1	5.3	-13
CC(=O)c1cccc(NCC(=O)Nc2cc(S(=O)(=O)N3CCCCC3)ccc2C)c1	7	?	9	-3	-4	0.2	-11
CCOC(=O)/C(C#N)=C/N=c1ccc(C)cn1C	3	3422	nt	nt	nt	nt	-41
CCc1cc(=O)oc2cc(OCC(=O)NCCCN3CCCC3=O)ccc12	7	5050	2	6	6	0.3	-21
O=C(NC1CCCCC1)N1CCN(CCc2ccccc2)CC1	6	7799	3	-2	3	-0.2	-25
Cc1ccc(S(=O)(=O)N=C(N)Nc2nc(C)c3cc(C)c(C)cc3n2)cc1	nt	nt	-7	5	-16	2.4	nt
N#CCCN1CCN(C(=S)c2ccc(-c3ccc(Cl)c(Cl)c3)o2)CC1	3	3513	8	11	17	2.9	-6
Cc1ccc(S(=O)(=O)Nc2cccc(-c3ccc4nnc(C)n4n3)c2)s1	1	2207	8	-6	12	5.5	-21
COc1ccccc1OC(=O)c1cc2ccccc2oc1=O	9	4194	15	0	6	6.3	-17
O=C(COC(=O)CCC(=O)c1cccs1)Nc1ccccc1[N+](=O)[O-]	2	4741	14	8	8	6.2	-16
Cn1nnnc1Sc1ncnc2scc(-c3ccccc3Cl)c12	nt	3846	10	14	5	3.5	3
O=S(=O)(c1ccc(SCc2ccccc2F)nc1)N1CCCC1	nt	4053	11	7	15	3.5	-24
CCN(Cc1ccncc1)C(=O)c1cccs1	-5	10951	4	5	2	-0.4	-9
O=c1oc2c(CN3CCCCC3)c(O)ccc2c2c1CCCC2	1	9481	14	5	0	4.7	1
C[C@H](CO)N1C[C@H](C)[C@@H](CN(C)S(=O)(=O)c2ccccc2)Oc2ccc(NC(=O)Nc3ccccc3)cc2C1=O	nt	3368	-6	1	-2	-2.4	-8
COc1ccc(NC(=O)C2=C(C)NC(=S)NC2c2ccc(O)c(OC)c2)cc1 (stereo not drawn)	4	4318	4	0	4	2.2	-25
CNC(=O)c1ccccc1NC(=O)c1c(O)c2c([nH]c1=O)CCCC2	1	3602	10	5	14	3.8	-1
COC(=O)[C@@]12CCCCN1C(c1ccc(-c3ccc4c(c3)OCO4)cc1)C1C(=O)N(C)C(=O)C12 (stereo partly drawn)	nt	nt	-8	5	-8	-2.7	nt
Cc1nc2c([N+](=O)[O-])c(C)c(C)cc2[nH]1	1	5150	4	11	2	11	-4
CC1(C2CC2)NC(=O)N(CC(=O)N2CCN(c3cccc(C(F)(F)F)c3)CC2)C1=O (stereo not drawn)	nt	3170	7	5	5	1.6	2
Cn1nc(C(=O)NCCOc2ccccc2)c2ccccc2c1=O	-12	3008	15	15	8	7.1	-18
Cc1ccc2nc(N(CCCN(C)C)C(=O)COc3ccc(Cl)cc3)sc2c1	3	nt	16	9	4	-3.7	5

Structures listed so far that have bromine (4):
SMILES	BJeLR lethal	Bead autofluor	Mtb hypoxia rep	Mtb hypoxia rep growth	Sa ugtP lethal	RN4220 kill	PrP UTR inh
COc1cccc(COc2ccccc2C2Nc3ccc(Br)cc3C(=O)N2NC(=O)c2ccncc2)c1 (stereo not drawn)	2	2415	nt	nt	-1	1.0	-24
COc1cc(C=C2C(=O)OC(c3ccccc3)OC2=O)cc(Br)c1O (stereo not drawn)	-1	2661	0	-1	0	2.0	-10
Cc1cc(Br)ccc1NC(=O)CN(C)C(=O)CSC(=S)N1CCCC1	nt	3969	-5	-1	-1	0.7	-18
Cc1cc(NC(=O)Cn2nc(C(=O)O)c3ccccc3c2=O)ccc1Br	-3	3606	-4	2	1	1.9	-14
